High-throughput results (PubChem)
BJeLR viability: kills HRASV12-expressing BJeLR cells; BJeLR (HRASV12) viability, CellTiter-Glo ATP luminescence, 48 h; reference of the scale not given here; inhibition, % (test concentration not listed); hit rate 0.17% among 300,000;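 active means replicate mean above 50%; inconclusive means above 50% but judged a plate artefact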;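 further: 50 nL library stock added to about 25 µL; numbers are from one replicate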
Bead autofluor: compound fluorescence in toxin protease inhibitor counterscreen | fluorescence intensity (no concentration beside the values) | compound autofluorescence counterscreen, microsphere flow cytometry; hits give high values | hit rate 3.1% among 360,000;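 active means at least 3 SD above the mean of all compounds, about 16000 in these data; inconclusive means too few beads counted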;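 further: 100 nL of 1 mM stock went into each well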
Sa RN4220 lethal: kills Staphylococcus aureus RN4220; S. aureus RN4220 growth, OD600, 16 h; inhibition, % (no concentration beside the values); hit rate 0.33% among 330,000; AID 1259311;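 active means z-score of -3 or lower and OD600 up to 0.18 on both plates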;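 further: plate controls were untreated cells for no effect and reference antibiotic for full effect; stock transfer was 100 nL into about 80 µL; one replicate is shown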
Mtb hypoxia inh: reduces hypoxia-regulated biosensor signal in M. tuberculosis | hit rate 0.1% among 300,000 | AID 1159583 | fluorescence inhibition, % (no concentration beside the values) | M. tuberculosis hypoxia-regulated fluorescent reporter, fluorescence;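 active means 35 to 45% if threefold the growth effect, above 45% if 1.5-fold the growth effect; inactive means the rest, general growth blockers included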;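 further: wells of about 50 µL received 100 nL stock; 0% = vehicle wells and 100% = reference inhibitor wells; whole bacteria with a GFP reporter of the hypoxia response; strong numbers were not always called active; many hits fall short of the cut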
PrP 5UTR inh: inhibition of PrP 5' UTR reporter expression; cell-based PrP 5' UTR mRNA reporter, plate reader; inhibition, % (no concentration beside the values); hit rate 0.35% among 340,000; AID 488862;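 active means every replicate at 50% or more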;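 further: 0 = median of the neutral control wells; tested in H4 reporter cells; numbers are from one replicate; inactives centre near -14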
ugtP null kill: kills S. aureus RN4220 lacking UgtP. growth inhibition, % (no concentration beside the values). AID 1259309. hit rate 0.54% among 330,000. S. aureus RN4220 ugtP deletion, OD600 growth, 16 h; some inactives read as strong as hits;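 active means z-score under -3 and OD600 up to 0.15 on both plates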;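 further: plate controls were untreated wells for no effect and antibiotic for full effect; wells of about 80 µL received 100 nL stock; the first replicate is given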
Mtb hypoxia inh growth: also measured in Mtb hypoxia inh; calls as there; growth inhibition, %; measured here: M. tuberculosis growth (absorbance);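 0% = vehicle and 100% = reference antibiotic; read after six days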
The depositor's hits bear a star; ? = inconclusive; . = no result given.

item | compound | Bead autofluor | PrP 5UTR inh | BJeLR viability | Mtb hypoxia inh growth
1 | CN1CCC(=NNC(=O)c2ccc(N(Cc3ccc(Cl)cc3)S(C)(=O)=O)cc2)CC1 | 7385 | -14 | 6 | 6
2 | Cc1nn(CCCC(=O)Nc2sc3c(c2C#N)CCC3)c(C)c1[N+](=O)[O-] | 6131 | -13 | 4 | 18
3 | O=C(O)c1cc(=O)cc(C(=O)O)[nH]1 | 15945 | -9 | 3 | -5
4 | Nc1ccn(C2CCCCO2)c(=O)n1 (stereo not given) | 3834 | -16 | . | 8
5 | COCCCn1nnnc1SCC(=O)N1c2ccccc2CC1C (stereo not given) | 4804 | -1 | 12 | 8
6 | CCOC(=O)CC1C(=O)NCCN1S(=O)(=O)c1ccc(NC(C)=O)cc1 (stereo not given) | 4741 | -9 | -4 | -8
7 | c1ccc(-c2nc3ccccn3c2-c2ccccc2)cc1 | 3282 | -15 | -8 | 4
8 | CCN(CC)S(=O)(=O)c1ccc(N2CCOCC2)c(NC(=O)c2ccc(C#N)cc2)c1 | 3984 | -5 | -1 | 0
9 | C/C(=N\NC(=O)c1nn(C)c(C)c1Br)c1ccc(NC(=O)c2ccccc2F)cc1 | 9836 | -17 | 11 | .
10 | O=C1ON=C(c2ccccc2)/C1=C/c1ccc(O)cc1 | 3431 | 0 | 8 | -8

item | Mtb hypoxia inh | ugtP null kill | Sa RN4220 lethal
1 | 6 | -1 | 7.7
2 | -2 | -7 | 2.9
3 | -1 | 10 | 1.8
4 | 19 | 5 | 3.1
5 | 16 | -6 | 3.2
6 | -2 | 10 | 5.1
7 | -8 | 19 | 3.1
8 | 10 | 1 | 4.3
9 | . | . | .
10 | -9 | 2 | 1.6

Down the list, as entered above:
BJeLR viability, compounds 6 to 9 → -4, -8, -1, 11

Next entries:
item | compound | Bead autofluor | PrP 5UTR inh | BJeLR viability | Mtb hypoxia inh growth
11 | COc1cc(C(C)=O)ccc1OC(C)C(=O)Nc1ccc(S(=O)(=O)N2CCCC2)cc1 (stereo not given) | . | -13 | . | 3
12 | CCOc1cc(N2CCOCC2)c(OCC)cc1NC(=O)COC(=O)c1c(CC)noc1C | 2706 | -14 | . | 4
13 | CC[C@]1(c2ccccc2)C(=O)N(C(=O)OC)N1C(=O)OC | 2912 | -10 | 4 | .
14 | CCOc1ccccc1N1CCN(C(=O)c2ccccc2SCC(=O)N2CCCC2)CC1 | 5898 | -11 | -8 | 10
15 | Nn1c(Cc2cccc3ccccc23)nnc1SCn1nnc2ccccc2c1=O | 2882 | -13 | -1 | 6
16 | Cc1ccc(-n2nc3c(=O)n(C(C)C(=O)NCCCc4ccccc4)nc(C)c3c2C)cc1 (stereo not given) | 4619 | -3 | -16 | -3
17 | COc1cc(/C=C2\SC(=S)N(CCC(=O)Nc3ccccc3)C2=O)cc(OC)c1OC | 4275 | -14 | 7 | 7
18 | CCOC(=O)C1C(c2ccccc2)NC(=S)NC1(C)O (stereo not given) | 3840 | -10 | 3 | 10
19 | COc1cccc(Nc2nc(-c3ccccc3O)nc3ccccc23)c1 | 3007 | -14 | -4 | -5
20 | O=C(O)C=CC(=O)Nc1ccc(S(=O)(=O)Nc2nccs2)cc1 | . | . | . | 15

item | Mtb hypoxia inh | ugtP null kill | Sa RN4220 lethal
11 | 6 | 7 | 5.1
12 | 14 | 16 | 6.5
13 | . | . | .
14 | 4 | -2 | 0.4
15 | 7 | 2 | 0.7
16 | 8 | 2 | -0.2
17 | 12 | -2 | 7.6
18 | 0 | 6 | 0.4
19 | -5 | -8 | -12
20 | 4 | 0 | 0.6

(cont.)
item | compound | Bead autofluor | PrP 5UTR inh | BJeLR viability | Mtb hypoxia inh growth
21 | COc1ccc(-c2cc(C(F)(F)F)c(C#N)c(=O)[nH]2)cc1 | 4303 | -12 | -3 | 7
22 | Cc1cccc(C(=O)OCC(=O)N(C)c2ccccc2)c1C | 5524 | -24 | 0 | 4
23 | NC(=O)c1cccnc1Nc1cccc([N+](=O)[O-])c1 | 4356 | -14 | -1 | 5
24 | Cc1ncc(CO)c2c1Oc1nc(-c3ccccc3F)nc(SCC(=O)N(C)c3ccccc3)c1C2 | 5414 | -3 | -6 | 2
25 | COC(=O)C(C(=O)OC)C(C(C)C)C(C(=O)OC)C(=O)OC | 4545 | -20 | 1 | .
26 | CCOC(=O)C1=C(C)NC(C)=C(C(=O)OCC)C1c1ccc(Br)o1 | 2175 | -5 | -8 | 4
27 | O=C(NCCc1ccccc1)C1c2ccccc2C(=O)N1Cc1cccs1 (stereo not given) | 5467 | -18 | 6 | -10
28 | CN(C)c1ccc(C(=O)OCC(=O)N2CCOCC2)cc1 | 3288 | -18 | 1 | 2
29 | CN(CC(=O)Nc1ccc(F)c(F)c1F)C(=O)CN1C(=O)NC2(CCCC2)C1=O | . | -22 | -1 | -3
30 | CCOC(=O)c1c(NC(=O)CN2CCCc3ccccc32)sc(C(C)=O)c1C | 4163 | -8 | 10 | -16

item | Mtb hypoxia inh | ugtP null kill | Sa RN4220 lethal
21 | 11 | 11 | 6.1
22 | 8 | 4 | 3.5
23 | 20 | 8 | 20
24 | -1 | -13 | 8.7
25 | . | 6 | 1.7
26 | 16 | 11 | 5.4
27 | -15 | -8 | 0.7
28 | 12 | 6 | 0.3
29 | 10 | 1 | 1.2
30 | -6 | -6 | 5.7

(list continues)
item | compound | Bead autofluor | PrP 5UTR inh | BJeLR viability | Mtb hypoxia inh growth
31 | O=C(CSc1ncnc2c1cnn2CCc1ccccc1)Nc1cccc(C(F)(F)F)c1 | 3379 | -27 | 6 | -4
32 | C=CCN1C(=O)C(Cc2ccc(C)cc2)SC1=NN=Cc1ccco1 (stereo not given) | . | . | . | 11
33 | CC(=O)NS(=O)(=O)c1ccc(NC(=O)/C=C/c2ccccc2Cl)cc1 | 2166 | 4 | 0 | .
34 | CCOC(=O)c1cc2c(=O)n3ccccc3nc2n(CCOC)c1=NC(=O)c1c(-c2c(F)cccc2Cl)noc1C | 4935 | -9 | . | 6
35 | COc1ccccc1C(=O)Nc1ccc(S(=O)(=O)NC2=NCCCCC2)cc1 | 4388 | -6 | 6 | -4
36 | CCOC(=O)N1CCN(C(=O)CSc2nnc(Cc3ccccc3)o2)CC1 | 6150 | -21 | -15 | .
37 | Cc1cc(C)c(C)c(C(=O)COC(=O)CNC(=O)CN2C(=O)c3ccccc3C2=O)c1C | 3583 | -15 | 6 | 4
38 | CCN(c1ccccc1)S(=O)(=O)c1cc2c(cc1C)n(C)c(=O)c(=O)n2C | 6108 | -16 | -1 | .
39 | CCCCC1(CO)C(=O)N(c2ccccc2)N(c2ccccc2)C1=O | . | -21 | 1 | 13
40 | O=C(Nc1cccc2ncccc12)c1ccc(Br)c([N+](=O)[O-])c1 | 2530 | -40 | -7 | -3

item | Mtb hypoxia inh | ugtP null kill | Sa RN4220 lethal
31 | -2 | -40 | -7.5
32 | 19 | 6 | 5.9
33 | . | -1 | 2.9
34 | 4 | 3 | 5.1
35 | 13 | 1 | 2.0
36 | . | -5 | 1.4
37 | 3 | 7 | -0.2
38 | . | 8 | 4.1
39 | -9 | 0 | -2.1
40 | 4 | -5 | 7.6

The results go on:
item | compound | Bead autofluor | PrP 5UTR inh | BJeLR viability | Mtb hypoxia inh growth
41 | Cc1cc(C)cc(NC(=O)COC(=O)c2ccc3c(c2)OCCO3)c1 | 3828 | -18 | . | 0
42 | N=c1c2c3c(sc2ncn1Cc1ccco1)CCCCC3 | 2036 | -14 | 0 | -8
43 | Cc1cccc(C)c1NC(=O)CSc1nnc([C@H](C)NC(=O)OC(C)(C)C)o1 | ? | -23 | 3 | -11
44 | COc1ccc(N(CC(=O)NCc2ccco2)S(=O)(=O)c2ccc(C)cc2)cc1OC | 3783 | 3 | -3 | -1
45 | CCOC(=O)N1CCN(C(=O)CSc2ccc3nnc(-c4ccncc4)n3n2)CC1 | 3148 | -6 | 5 | -4
46 | CC(C)(C)NC(=O)c1ccc2c3c(cccc13)CC2 | 2530 | -14 | -8 | 8
47 | COc1ccc(CC(=O)N(C)C2CCCCC2)cc1S(=O)(=O)N1CCOCC1 | 4593 | -4 | -8 | 2
48 | CC(=O)N1Cc2cc([N+](=O)[O-])ccc2Oc2ccccc21 | 2090 | -4 | -1 | 9
49 | CC(C)[C@H](NC(=O)c1ccccc1)C(=O)OCC(=O)Nc1ncc(Cl)cc1Cl | 4015 | -12 | . | 19
50 | O=C(Nc1ccc(S(=O)(=O)NCC2CCCO2)cc1)c1ccccc1 (stereo not given) | 2654 | -8 | -2 | 7

item | Mtb hypoxia inh | ugtP null kill | Sa RN4220 lethal
41 | 12 | 1 | 2.6
42 | -11 | -9 | -3.0
43 | -4 | 2 | 6.5
44 | 8 | 4 | 3.4
45 | 12 | 4 | 9.7
46 | 16 | 4 | 10
47 | 8 | 4 | 1.7
48 | 1 | 14 | 4.9
49 | 6 | 8 | 2.4
50 | 4 | -3 | -0.2

Following part:
item | compound | Bead autofluor | PrP 5UTR inh | BJeLR viability | Mtb hypoxia inh growth
51 | O=C(c1cccc(Cl)c1)N1CCC(=O)N(C(COCc2cccc(Cl)c2)Cc2ccccc2)CC1 (stereo not given) | 4045 | -24 | 9 | 5
52 | Cc1cccc(Nc2nc(N)c([N+](=O)[O-])c(NCCO)n2)c1 | 4586 | -15 | -11 | .
53 | O=C(OCC(=O)N1CCc2ccccc21)c1c2c(nc3ccccc13)CCCCC2 | 2107 | -42 | -10 | 7
54 | COc1ccc(Oc2ccc3c(C(F)(F)F)cc(C(F)(F)F)nc3n2)cc1 | 22263* | -5 | -1 | 4
55 | Cn1c(N)c(S(=O)(=O)c2ccc(Br)cc2)c2nc3ccccc3nc21 | 6280 | -13 | -10 | 2
56 | COc1ccc(CCN2CC(C(=O)N(C)C3CCOCC3)CCC2=O)cc1 (stereo not given) | 5621 | -19 | 4 | -1
57 | COc1ccc(C(=O)NC(=S)Nc2ccc(N3CCCC3)cc2)cc1OC | 9144 | -17 | 2 | 7
58 | COc1cccc2c(SCC(=O)NN=Cc3ccc(O)cc3O)cc(C)nc12 | . | . | . | 0
59 | Cc1ccc(S(=O)(=O)NCC(C)n2cncn2)cc1 (stereo not given) | 5811 | -4 | -5 | -8
60 | Cc1ccc(NS(=O)(=O)c2ccc(-n3cccn3)cc2)c(C)c1 | 5439 | -16 | 6 | -7

item | Mtb hypoxia inh | ugtP null kill | Sa RN4220 lethal
51 | 21 | 12 | -0.8
52 | . | . | .
53 | 3 | -2 | -6.2
54 | -4 | -2 | -1.4
55 | 4 | -10 | -4.0
56 | -7 | -2 | -3.2
57 | 3 | 28 | 2.5
58 | 14 | 4 | 8.1
59 | 1 | 8 | 2.1
60 | 6 | 5 | 11

Shown tab-delimited: 4 of the compounds above.
item	SMILES	Bead autofluor	PrP 5UTR inh	BJeLR viability	Mtb hypoxia inh growth	Mtb hypoxia inh	ugtP null kill	Sa RN4220 lethal
52	Cc1cccc(Nc2nc(N)c([N+](=O)[O-])c(NCCO)n2)c1	4586	-15	-11	.	.	.	.
53	O=C(OCC(=O)N1CCc2ccccc21)c1c2c(nc3ccccc13)CCCCC2	2107	-42	-10	7	3	-2	-6.2
54	COc1ccc(Oc2ccc3c(C(F)(F)F)cc(C(F)(F)F)nc3n2)cc1	22263*	-5	-1	4	-4	-2	-1.4
55	Cn1c(N)c(S(=O)(=O)c2ccc(Br)cc2)c2nc3ccccc3nc21	6280	-13	-10	2	4	-10	-4.0

Continuation:
item | compound | Bead autofluor | PrP 5UTR inh | BJeLR viability | Mtb hypoxia inh growth
61 | O=C(NCC1CCCO1)C1CCN(C2CCN(C(=O)C3CCCCC3)CC2)CC1 (stereo not given) | 4244 | -8 | -5 | 5
62 | CCCCN1CC(=O)N2C3c4cc(Cl)ccc4OCC3C(C(=O)OCC)[C@]2(C)C1=O (stereo not given in full) | . | . | . | 6
63 | CCOc1ccc(N2CC(C(=O)Nc3ccccc3C(=O)N3CCOCC3)CC2=O)cc1 (stereo not given) | 5488 | -22 | 3 | 5
64 | CCn1nc(C)c(Br)c1-c1nc(CS(=O)(=O)c2ccc(F)cc2)no1 | 6349 | -2 | -10 | 4
65 | COc1cc(C(O)CO)ccc1O (stereo not given) | 6268 | -8 | . | 3
66 | Cn1c(=O)c2c(nc(SCc3cccnc3)n2Cc2ccc(F)cc2)n(C)c1=O | 7247 | -10 | -5 | 6

item | Mtb hypoxia inh | ugtP null kill | Sa RN4220 lethal
61 | 10 | 10 | 8.9
62 | 4 | 0 | 6.1
63 | 18 | 3 | 1.2
64 | 6 | 10 | 4.4
65 | -2 | 1 | 3.7
66 | 10 | -1 | 2.1
